Screening results (PubChem BioAssay)
PABP polyA inh: blocks human PABP binding to poly(A) RNA; P11940; fluorescence polarization; inhibition, % at 35 µM; hit rate 1% among 290,000; AID 2014;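 active = 50% or more with normal probe brightness, or confirmed in later tests; inconclusive = above 50% with abnormal brightness, or retests that disagree; inactive = below 50% or failed in later tests; about a fifth of its hits are not listed in these tables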;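 also: calls also rest on retests at 20 µM and on dose response follow-up; controls were probe without protein and protein plus probe with vehicle; some compounds called inactive have numbers as strong as hits; many hits fall short of the cut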
Target sequence (P11940 whole entry, looked up): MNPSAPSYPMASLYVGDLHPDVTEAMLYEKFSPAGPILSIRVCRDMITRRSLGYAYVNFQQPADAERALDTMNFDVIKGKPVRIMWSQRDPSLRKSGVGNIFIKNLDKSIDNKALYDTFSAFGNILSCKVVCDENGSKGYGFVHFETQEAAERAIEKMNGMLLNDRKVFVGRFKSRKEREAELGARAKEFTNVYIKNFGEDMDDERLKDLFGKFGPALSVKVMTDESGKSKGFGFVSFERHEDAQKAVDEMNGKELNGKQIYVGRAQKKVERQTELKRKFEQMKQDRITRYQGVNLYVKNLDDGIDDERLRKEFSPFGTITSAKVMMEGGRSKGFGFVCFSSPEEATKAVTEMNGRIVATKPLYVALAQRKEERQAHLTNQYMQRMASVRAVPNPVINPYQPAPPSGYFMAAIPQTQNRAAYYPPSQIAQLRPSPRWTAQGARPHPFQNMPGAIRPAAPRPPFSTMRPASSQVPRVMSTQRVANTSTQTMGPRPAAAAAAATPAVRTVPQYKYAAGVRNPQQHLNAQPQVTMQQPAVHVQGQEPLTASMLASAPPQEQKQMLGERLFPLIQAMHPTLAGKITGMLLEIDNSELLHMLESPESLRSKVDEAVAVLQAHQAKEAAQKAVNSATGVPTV
eIF4H inh: inhibitors of RNA binding by human eIF4H. Q15056. eIF4H fluorescence polarization binding assay. inhibition, % at 35 µM. hit rate 0.94% among 290,000. AID 2012;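 active = 50% or more with normal probe brightness, or confirmed in later tests; inconclusive = above 50% with abnormal brightness, or retests that disagree; inactive = below 50% or failed in later tests; about a fifth of its hits are not listed in these tables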;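 also: calls also rest on retests at 20 µM and on dose response follow-up; 0% = protein and probe with vehicle and 100% = probe without protein; strong numbers were not always called active; many hits fall short of the cut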
Yeast UUG start: alters start codon recognition fidelity in yeast; S. cerevisiae UUG-firefly luciferase reporter, luminescence/redox ratio; hit rate 0.13% among 350,000; activity score, % at 18.7 µM; AID 602363;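 active = replicate mean at a twofold rise or more, about +100% in these data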;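 also: firefly luciferase made from a UUG start codon reports start codon fidelity; reporter light over untreated wells divided by growth signal over untreated wells; some hits fall short of that in this replicate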
CSC inhib: blocks cancer stem cells; inhibition, % at 7.5 µM; AID 2717; cancer stem cell-like cells viability, luminescence; hit rate 1.1% among 300,000;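 active = mean at 75% or more and at least half the replicates too; inconclusive = mean and replicates disagree; tested in HMLE shEcad cells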;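 also: 0% = median of negative and 100% = median of positive control wells; the first replicate is given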
Rce1 inh: yeast Ras-converting enzyme inhibition; yeast membranes, quenched prenylated peptide cleavage fluorescence; calls only; hit rate 0.27% among 290,000;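 active = fall in fluorescence gain of 50% or more versus controls, with final raw signal at or below 3038400; inconclusive = same 50% fall but final raw signal above 3038400; inactive = fall in fluorescence gain under 50%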;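 also: plate controls were neutral control wells for no effect and wells lacking membranes for full effect; tested at 10 µM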
Target sequence (Q03530 whole entry, looked up): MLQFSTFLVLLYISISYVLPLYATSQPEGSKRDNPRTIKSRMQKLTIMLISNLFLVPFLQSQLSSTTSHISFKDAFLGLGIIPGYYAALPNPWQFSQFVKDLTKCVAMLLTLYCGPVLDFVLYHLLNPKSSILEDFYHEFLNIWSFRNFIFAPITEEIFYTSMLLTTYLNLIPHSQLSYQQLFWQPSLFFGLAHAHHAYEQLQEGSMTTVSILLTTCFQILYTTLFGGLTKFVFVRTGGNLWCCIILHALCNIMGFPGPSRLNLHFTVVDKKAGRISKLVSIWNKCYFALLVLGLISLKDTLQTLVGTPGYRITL
MT1-MMP act inh: blocks activation of human MT1-MMP | HT1080 RFP-PRO-GFP cells, GFP/RFP ratio fluorescence, overnight; percent of plate control window, DMSO zero | GFP/RFP ratio change, % at 20 µM | hit rate 0.061% among 360,000;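 active = GFP/RFP ratio change of at least 30% with cell ATP level not reduced by more than half and red fluorescence within 50% of control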; also: strong numbers were not always called active
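Assay system: HT1080 cells carrying an RFP-PRO-GFP reporter | Dosing: Single dose of 20 µM compound, 1% DMSO final | Incubation: Cells overnight before dosing, compound overnight, 37 °C, 5% CO2 | Evaluation: GFP/RFP fluorescence ratio | Control set: DMSO and RFP-L50D-GFP cell wells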
Env fusion inh: inhibitors of HIV Env-mediated cell fusion; inhibition, % at 12.3 µM; hit rate 1.1% among 360,000; HeLa-JRFL Env/CEM21 cell fusion, luciferase; AID 651610;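 active = mean replicate inhibition score of at least 50 and every replicate individually at or above 50; inconclusive = only one of the two criteria met; inactive = mean below 50 and not all replicates reaching 50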;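 also: 0% = plate neutral controls and 100% = maraviroc near 300 nM; one replicate is shown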
eIF4H inh retest: also measured in eIF4H inh; calls as there; inhibition, %; compound at 20 µM; confirmation average;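 mean of two retest wells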
PABP polyA inh retest: recorded beside PABP polyA inh, whose call it bears; inhibition, %; compound at 20 µM; confirmation repeats;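 mean of two retest wells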
MT1-MMP act inh RFP: second read-out of MT1-MMP act inh, no call of its own (marks repeat the call); RFP signal change, %; measured here: RFP expression control read;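 0 = vehicle wells; hits needed this value within 50% of zero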
* hit, by the source's call; i = inactive; ? = inconclusive; nt = not tested or not shown.

A first look (two entries):
SMILES | PABP polyA inh | eIF4H inh | Yeast UUG start | CSC inhib | Rce1 inh | MT1-MMP act inh | MT1-MMP act inh RFP | Env fusion inh | others
COc1ccccc1N1CCN(C(=O)CCc2nnc3ccc(N4CCOCC4)nn23)CC1 | -13 | -4 | -15 | -11 | i | 1 | 1 | 1
CC(C)c1ccc(-n2c(-c3ccccc3)c[n+]3c2CCc2ccccc2-3)cc1 | -5 | 8 | nt | nt | i | -24 | -35 | 49

Main list (from the top)
SMILES | PABP polyA inh | eIF4H inh | Yeast UUG start | CSC inhib | Rce1 inh | MT1-MMP act inh | MT1-MMP act inh RFP | Env fusion inh | others
COc1ccccc1N1CCN(C(=O)CCc2nnc3ccc(N4CCOCC4)nn23)CC1 | -13 | -4 | -15 | -11 | i | 1 | 1 | 1
CC(C)c1ccc(-n2c(-c3ccccc3)c[n+]3c2CCc2ccccc2-3)cc1 | -5 | 8 | nt | nt | i | -24 | -35 | 49
CCCCNC(=O)C1(C)CCCCN1C(=O)c1cc(C#N)cs1 (centres undefined) | nt | nt | -18 | nt | nt | -3 | 1 | -16
COc1ccccc1Nc1nnc(SCC(=O)Nc2nc(-c3ccc(F)cc3)cs2)s1 | -7 | 4 | nt | 1 | i | -5 | -3 | 1
Cc1cccc2cc(CNCc3ccccc3)c(Cl)nc12 | 1 | 2 | nt | 4 | i | 0 | 5 | -2
COc1ccc(CCNC(=O)c2ccc(CNc3c(N4CCOCC4)c(=O)c3=O)cc2)cc1OC | -10 | -8 | nt | -8 | i | -7 | 2 | nt
O=C(NCc1ccc2c(c1)OCO2)c1ccc(Cl)c(S(=O)(=O)N2CCOCC2)c1 | 3 | 0 | 17 | nt | i | 8 | 0 | nt
O=C(COc1ccc2ccccc2c1Br)N1CCOCC1 | 4 | 0 | -5 | -4 | i | 3 | 2 | nt
COc1ccccc1/C=N/NC(=O)CCn1cnc2ccccc21 | -4 | -5 | nt | -7 | i | -2 | 2 | 10
CCOC(=O)C1=C[C@@H](C(C)(C)C)N(S(=O)(=O)c2ccc([N+](=O)[O-])cc2)[C@H]1c1ccccc1 | nt | nt | -13 | nt | nt | -8 | -35 | 37
O=C(NCc1ccncc1)C1CCCN(S(=O)(=O)c2cc(Cl)ccc2Cl)C1 (centres undefined) | nt | nt | nt | -3 | i | 0 | -23 | 5
CN(Cc1ccccc1)S(=O)(=O)c1ccc(NC(=S)NC(=O)C2CCCC2)cc1 | 5 | -7 | 12 | 66 | i | -7 | -11 | nt
C[C@@H]1CCC[C@H](C)N1NC(=O)c1ccc(Cl)c(S(N)(=O)=O)c1 | 2 | -2 | -2 | -15 | i | 0 | 2 | 3
O=[N+]([O-])c1cc(S(=O)(=O)N2CCCCC2)ccc1NCCCN1CCOCC1 | -10 | 0 | nt | 20 | i | 4 | 3 | -4
COC(=O)c1ccc(OC)c(Cn2c(=O)n(C)c(=O)c3ccccc32)c1 | 5 | -8 | 1 | -4 | i | 0 | -1 | 7
COC(=O)c1cccc(CN2C(=O)SC(Nc3ccccc3)C2=O)c1 (centres undefined) | 6 | -6 | nt | 4 | i | -2 | 2 | -2
CCOC(=O)CSc1nnc(NC(=O)c2cccc(S(=O)(=O)N3CCCCCC3)c2)s1 | -5 | -4 | -13 | -13 | i | 9 | 4 | -45
CN1CCC(OC(=O)c2cc3cc(Cl)cc(Cl)c3oc2=O)CC1 | 24 | -9 | -6 | 45 | i | -34 | -9 | -5
Cc1ccc(NC(=S)N(Cc2cccc(Br)c2)CC2CCC(C(=O)O)CC2)cc1Cl (centres undefined) | 4 | 0 | nt | -7 | i | 4 | 3 | 5
CCOc1cc(C(=O)NCC(=O)N/N=C/c2sccc2C)cc(OCC)c1OCC | 1 | -5 | -15 | -1 | i | 1 | 2 | -17
O=C(Nc1nc(-c2cc3ccccc3oc2=O)cs1)c1ccco1 | -9 | -4 | -11 | 14 | i | 0 | 0 | 13
CCOC(=O)c1nn(-c2ccc(F)cc2)c(-c2ccccc2)c1C(=O)c1ccccc1 | 2 | 0 | 4 | 78* | i | 2 | -2 | nt
Cc1ccccc1NC(=O)Cc1nc(COC(=O)c2cccc([N+](=O)[O-])c2)cs1 | -1 | -2 | -9 | 5 | i | 4 | 2 | nt
CC(=O)n1cc(/C=N/NC(=O)c2ccc(Cl)cc2)c2ccccc21 | 2 | 8 | -7 | -5 | i | 4 | 1 | -14
COc1ccc(OC)c2[nH]c(C(=O)N/N=C/c3ccccc3O)cc12 | 8 | 5 | -20 | 74 | i | 8 | -7 | 20
CNC(=O)C(=O)NCC1CCCN1S(=O)(=O)c1cccs1 (centres undefined) | nt | nt | -7 | 0 | i | 1 | 6 | 1
CCN(CC(=O)Nc1c(F)cccc1F)C(=O)Cc1ccc2c(c1)CCC2 | nt | nt | 11 | -12 | i | 5 | -2 | 4
CC(C)c1nnc(NC(=O)C2CCN(C(=O)Nc3ccccc3)CC2)s1 | 4 | 0 | -6 | nt | i | -6 | -3 | -8
COc1ccc(-c2cn(-c3ccccc3)nc2C(=O)O)cc1OC | -6 | -12 | 9 | -1 | i | 2 | 2 | 13
Cc1ccc(S(=O)(=O)N2CCOCC2)cc1C(=O)NC1CCSc2ccccc21 (centres undefined) | 3 | -8 | -8 | -8 | i | -2 | -3 | 4
CCOc1ccc(N2C(=O)CC(NCC#N)C2=O)cc1 (centres undefined) | 8 | 6 | -5 | -5 | i | 3 | 5 | -16
Fc1ccccc1-n1c(-c2ccc3ccccc3n2)n[nH]c1=S | 6 | -1 | -22 | -8 | i | 0 | 1 | -28
CC1(c2nnc(-c3ccc(Cl)cc3)o2)CC(c2c(Cl)cccc2Cl)=NO1 (centres undefined) | 0 | 0 | -24 | -2 | i | 0 | 2 | 26
O=C(Nc1nc2c(F)cccc2s1)c1ccco1 | 6 | -6 | -14 | -4 | i | -2 | -2 | -154
O=C(c1cccc(Cl)c1)N1CCC(c2nc3ccccc3[nH]2)CC1 | ? | -1 | nt | -9 | i | 1 | -3 | 3
O=C(Nc1ccc(OC(F)(F)F)cc1)c1ccc(S(=O)(=O)N2CCOCC2)o1 | 6 | -5 | nt | 11 | i | 3 | -11 | 9
O=C(O)CSc1c(O)c2ccccc2[nH]c1=O | -1 | 22 | nt | -4 | i | 1 | 5 | 1
COc1cccc(C(O)c2nc(-c3ccccc3C)cs2)c1 (centres undefined) | nt | nt | 1 | nt | nt | 3 | -6 | -31
CCC(C)c1ccccc1NC(=O)c1cc2cccc([N+](=O)[O-])c2[nH]1 (centres undefined) | 15 | 0 | -2 | 5 | i | -3 | -14 | 12
CCCC(=O)Nc1ccccc1-c1nnc(SC)[nH]c1=O | -10 | -1 | -10 | -2 | i | 0 | 7 | 0
Cn1c(C(=O)N2CCN(c3ccc(Cl)cc3)CC2)cc2c(=O)[nH]c3ccccc3c21 | 0 | -5 | nt | 11 | i | 10 | -2 | 28
O=C(Nc1ccc(-c2nc3ccccc3[nH]2)cc1)c1cccc(N2C(=O)CCC2=O)c1 | 7 | -16 | nt | 5 | i | 7 | 8 | -33
COc1ccc(-c2csc(-c3cccs3)n2)c(OC)c1 | -3 | 18 | -28 | nt | i | -1 | 0 | -198
COc1cc(C2NC(=O)NC(c3ccccc3)=C2C(C)=O)ccc1OCC#N (centres undefined) | -15 | -1 | -4 | -13 | i | 0 | 4 | -30
CCN1CCN(C(=O)c2ccc(C)c(S(=O)(=O)Nc3cccc(C)c3)c2)CC1 | 1 | 18 | -27 | -5 | i | -4 | -5 | -4
O=C(/C=C/Nc1cccc(C(F)(F)F)c1)c1ccc(Oc2ncccn2)cc1 | 11 | -6 | -19 | -6 | i | 0 | -3 | nt
Cc1ccc(NC(=O)N2CCCCCC2)cc1 | -13 | -13 | -18 | -10 | i | 2 | 5 | -7
S=C1NC[C@H](c2ccccc2)N1CCCCC1CCCCC1 | 83 | -9 | -32 | 12 | i | 8 | -1 | 23 | eIF4H inh retest=-14;PABP polyA inh retest=6
O=C(Nc1ccccc1C(=O)Nc1ccccc1)c1ccccc1F | -3 | -4 | -23 | -9 | i | 2 | 6 | -7
CCN(CC(=O)Nc1ccccc1OC)C(=O)c1cc(-c2ccccc2)nn1-c1ccccc1 | nt | nt | -7 | 0 | i | 4 | 1 | 17
(further entries)
SMILES | PABP polyA inh | eIF4H inh | Yeast UUG start | CSC inhib | Rce1 inh | MT1-MMP act inh | MT1-MMP act inh RFP | Env fusion inh | others
COC(=O)C1=C(N)OC2=C(C(=O)CC(C)(C)C2)C1c1ccccc1OC (centres undefined) | -4 | -7 | -10 | -1 | nt | 3 | 6 | -2
COc1ccc(CNc2oc(-c3cccc4ccccc34)nc2C#N)cc1 | 4 | 3 | -1 | nt | i | -2 | 3 | nt
CCOC(=O)C1CCN(C(=O)CCCOc2ccccc2)CC1 | -2 | -3 | -24 | -6 | i | -4 | -6 | nt
Clc1ccccc1CSc1ncccn1 | 5 | -2 | -10 | -4 | i | 8 | 10 | nt
COc1ccc(NC(=O)CN(C)C(=O)Cc2coc3cc(C)c(C)cc23)cc1 | nt | nt | -9 | -18 | i | 6 | 2 | nt
O=C(CNC(=O)c1cccs1)Nc1ccc2c(c1)OCCO2 | nt | nt | -27 | 33 | i | 1 | -1 | -40
N#Cc1ccc(-c2nc3ccc(Br)cn3c2Cc2cccc(Cl)c2)cc1 | nt | nt | -14 | nt | nt | -1 | -3 | -103
COc1ccc(CCNC(=O)CC2SC(N)=NC2=O)cc1OC (centres undefined) | 2 | -7 | nt | -6 | i | 0 | 2 | 11
O=C(COC(=O)Cc1c[nH]c2ccccc12)Nc1ccccc1C(F)(F)F | nt | nt | 7 | -17 | nt | -1 | 3 | 3
COc1ccc(C[C@H]2CN3C(=NC[C@@H]3C(C)C)N2CCNC(=O)CCC2CCCCC2)cc1 | -7 | -11 | -5 | 4 | i | 0 | 1 | -25
CCCN(CC(=O)Nc1ccccc1C)C(=O)c1ccc(S(=O)(=O)N2CCCCC2)cc1 | 5 | -7 | -13 | 9 | i | -5 | -3 | -12
O=C(NC(Cc1ccccc1)C(=O)NCCc1ccccn1)c1cccs1 (centres undefined) | 0 | -6 | -21 | -2 | i | -5 | 0 | 11
C=CCN(c1ccccc1)S(=O)(=O)c1cccc(C(=O)Nc2cc(C)ccn2)c1 | nt | nt | -2 | 14 | i | -3 | -2 | -13
Cc1c(Cl)cccc1NC(=S)NCCc1ccc(S(N)(=O)=O)cc1 | 0 | 3 | -29 | -8 | i | -10 | 3 | 1
CSc1cccc(NC(=O)CC2Oc3ccccc3NC2=O)c1 (centres undefined) | 5 | -10 | -5 | -9 | i | 2 | -3 | 9
O=C(CC1CCCCC1)Nc1nc2ccccc2s1 | -4 | -2 | nt | 0 | i | -3 | -2 | -71
Nc1ccc([N+](=O)[O-])cc1C(=O)NNC(=O)c1ccco1 | 9 | 3 | -26 | 4 | i | -1 | 1 | 0
O=C(CNC(=O)c1ccc(Br)cc1)NCC(=O)OCC(=O)c1ccccc1 | -12 | 1 | nt | -12 | i | 4 | 6 | -9
Cc1cc(NCCCn2ccnc2)n2ncc(-c3ccccc3)c2n1 | -3 | -1 | -68 | 1 | nt | -19 | -7 | nt
CC(C)c1cccc(-c2csc(C(O)c3ccc(F)c(F)c3)n2)c1 (centres undefined) | nt | nt | -9 | nt | nt | -2 | -4 | 6
O=c1cc(-c2c(F)c(F)c(F)c(F)c2F)oc2ccccc12 | -7 | -5 | -20 | 27 | i | 8 | 5 | nt
Cc1cc(=O)oc(C)c1C(=O)O | 6 | -5 | -6 | 0 | i | -4 | -2 | 9

Only part of the results is shown, so the mix of outcomes need not match the whole.
